Source: PubChem (several laboratories)
Env fusion inh – HIV envelope-mediated fusion inhibition; hit rate 1.1% among 360,000; AID 651610; HeLa-JRFL Env/CEM21 cell fusion, luciferase; inhibition, % at 12.3 µM;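 active means mean replicate inhibition score of at least 50 and every replicate individually at or above 50; inconclusive means only one of the two criteria met; inactive means mean below 50 and not all replicates reaching 50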;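 further: 0% = plate neutral controls and 100% = maraviroc near 300 nM; one replicate is shown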
CSC inhib – cancer stem cell inhibition; inhibition, % at 7.5 µM; hit rate 1.1% among 300,000; cancer stem cell-like cells viability, luminescence;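 active means mean at 75% or more and at least half the replicates too; inconclusive means mean and replicates disagree; tested in HMLE shEcad cells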;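 further: 0% = median of negative and 100% = median of positive control wells; the first replicate is given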
PABP FP inh – PABP-poly(A) binding inhibition | P11940 | PABP-poly(A) RNA binding, fluorescence polarization | inhibition, % at 35 µM | hit rate 1% among 290,000 | AID 2014;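 active means 50% or more with normal probe brightness, or confirmed in later tests; inconclusive means above 50% with abnormal brightness, or retests that disagree; inactive means below 50% or failed in later tests; about a fifth of its hits are not listed in these tables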;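 further: calls also rest on retests at 20 µM and on dose response follow-up; controls were probe without protein and protein plus probe with vehicle; some compounds called inactive have numbers as strong as hits; many hits fall short of the cut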
Target sequence (P11940 whole entry, looked up): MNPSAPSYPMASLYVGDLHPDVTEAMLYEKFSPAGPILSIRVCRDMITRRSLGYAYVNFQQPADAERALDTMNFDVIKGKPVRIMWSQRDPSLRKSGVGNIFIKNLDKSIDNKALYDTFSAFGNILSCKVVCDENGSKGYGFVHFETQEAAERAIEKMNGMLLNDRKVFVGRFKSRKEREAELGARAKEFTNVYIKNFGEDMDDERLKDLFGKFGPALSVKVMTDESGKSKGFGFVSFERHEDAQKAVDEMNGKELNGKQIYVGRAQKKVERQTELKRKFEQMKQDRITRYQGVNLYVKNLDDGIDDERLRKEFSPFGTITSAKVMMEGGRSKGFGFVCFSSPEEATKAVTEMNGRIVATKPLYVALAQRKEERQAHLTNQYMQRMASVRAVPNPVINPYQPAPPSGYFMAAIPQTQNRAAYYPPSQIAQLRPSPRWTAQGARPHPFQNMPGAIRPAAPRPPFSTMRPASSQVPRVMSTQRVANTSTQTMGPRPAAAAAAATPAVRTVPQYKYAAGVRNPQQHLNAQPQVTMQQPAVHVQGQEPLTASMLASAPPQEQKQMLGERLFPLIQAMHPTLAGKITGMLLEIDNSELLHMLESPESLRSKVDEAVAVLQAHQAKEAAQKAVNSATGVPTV
Rce1 inh – blocks yeast Ras-converting enzyme; hit rate 0.27% among 290,000; calls only; yeast membranes, quenched prenylated peptide cleavage fluorescence; Q03530;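 active means fall in fluorescence gain of 50% or more versus controls, with final raw signal at or below 3038400; inconclusive means same 50% fall but final raw signal above 3038400; inactive means fall in fluorescence gain under 50%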;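 further: plate controls were neutral control wells for no effect and wells lacking membranes for full effect; tested at 10 µM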
Target sequence (Q03530 whole entry, looked up): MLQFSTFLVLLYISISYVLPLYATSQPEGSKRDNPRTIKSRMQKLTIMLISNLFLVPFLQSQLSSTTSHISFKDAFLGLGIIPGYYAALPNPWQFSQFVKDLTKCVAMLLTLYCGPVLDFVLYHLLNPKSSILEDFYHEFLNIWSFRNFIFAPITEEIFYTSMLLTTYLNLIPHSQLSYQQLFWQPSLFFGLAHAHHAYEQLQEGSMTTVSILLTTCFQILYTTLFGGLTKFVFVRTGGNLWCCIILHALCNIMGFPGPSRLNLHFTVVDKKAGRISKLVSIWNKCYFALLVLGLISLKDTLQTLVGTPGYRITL
eIF4H FP inh – inhibitors of RNA binding by human eIF4H. Q15056. eIF4H fluorescence polarization binding assay. inhibition, % at 35 µM. hit rate 0.94% among 290,000;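 active means 50% or more with normal probe brightness, or confirmed in later tests; inconclusive means above 50% with abnormal brightness, or retests that disagree; inactive means below 50% or failed in later tests; about a fifth of its hits are not listed in these tables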;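 further: calls also rest on retests at 20 µM and on dose response follow-up; 0% = protein and probe with vehicle and 100% = probe without protein; strong numbers were not always called active; many hits fall short of the cut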
UUG fidelity – modulators of start codon recognition fidelity in yeast | S. cerevisiae UUG-firefly luciferase reporter, luminescence/redox ratio | activity score, % at 18.7 µM | hit rate 0.13% among 350,000 | AID 602363;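 active means replicate mean at a twofold rise or more, about +100% in these data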;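 further: firefly luciferase made from a UUG start codon reports start codon fidelity; reporter light over untreated wells divided by growth signal over untreated wells; some hits fall short of that in this replicate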
MT1-MMP act inh – MT1-MMP (human) activation inhibition. P50281. HT1080 RFP-PRO-GFP cells, GFP/RFP ratio fluorescence, overnight; percent of plate control window, DMSO zero. hit rate 0.061% among 360,000. GFP/RFP ratio change, % at 20 µM;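 active means GFP/RFP ratio change of at least 30% with cell ATP level not reduced by more than half and red fluorescence within 50% of control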; further: strong numbers were not always called active
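Assay system: HT1080 cells carrying an RFP-PRO-GFP reporter | Dosing: Single dose of 20 µM compound, 1% DMSO final | Incubation: Cells overnight before dosing, compound overnight, 37 °C, 5% CO2 | Evaluation: GFP/RFP fluorescence ratio | Control set: DMSO and RFP-L50D-GFP cell wells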
eIF4H FP inh retest – recorded beside eIF4H FP inh, whose call it bears; inhibition, %; compound at 20 µM; confirmation average;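 mean of two retest wells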
PABP FP inh retest – also measured in PABP FP inh; calls as there; inhibition, %; compound at 20 µM; confirmation repeats;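 mean of two retest wells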
MT1-MMP act inh RFP – second read-out of MT1-MMP act inh, no call of its own (marks repeat the call); RFP signal change, %; measured here: RFP expression control read;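 0 = vehicle wells; hits needed this value within 50% of zero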
The depositor's hits bear a star; i = inactive; u = inconclusive; x = not tested or not shown.

SMILES	Env fusion inh	CSC inhib	PABP FP inh	Rce1 inh	eIF4H FP inh	UUG fidelity	MT1-MMP act inh	MT1-MMP act inh RFP	others
COc1cc(NC(=O)c2cc(C(C)C)on2)cc(OC)c1OC	-19	-9	-1	i	-8	-12	-1	3
CCn1nc(C)c(CN2CCN(Cc3ccsc3)C(CCO)C2)c1C (centres undefined)	-1	-5	7	i	-3	x	-3	1
CC1C2CC(C/C2=N/NC(=O)c2cccs2)C1(C)C (centres undefined)	15	-19	-9	i	-3	x	7	9
NS(=O)(=O)c1ccc(CCNC(=O)/C=C/c2ccccc2[N+](=O)[O-])cc1	4	-7	-10	i	-6	x	0	0
Cc1cc(C(=O)Nc2ccc(C)c(S(=O)(=O)N3CCOCC3)c2)c2ccccc2n1	4	x	x	x	x	0	0	-2
Cc1nc(N)sc1-c1csc(Nc2ncccn2)n1	-17	x	-4	i	36	x	-3	-1
O=C(c1cn(-c2ccccc2)nc1-c1cccnc1)N1CCN(S(=O)(=O)c2cccc(F)c2)CC1	x	1	x	x	x	-6	-3	-1
C=CCSc1nnc(Cc2cc(=O)[nH]c(=O)[nH]2)n1-c1cc(C)ccc1C	-14	-9	15	i	2	-14	1	3
CN(C)C(=O)CN1c2cccc3cccc(c23)S1(=O)=O	8	1	-3	i	-1	3	-1	2
CS(=O)(=O)N1CCN(c2ccc(NC(=S)NC(=O)c3ccc4c(c3)OCO4)cc2)CC1	5	11	-7	i	1	x	5	-2
COC(=O)c1ccc(/C=N/NC(=O)c2cccc(F)c2)cc1	x	x	-4	i	2	-18	5	11
O=C(Nc1ccccc1N1CCOCC1)C1CCN(S(=O)(=O)c2ccc(Cl)cc2)CC1	-1	-2	-8	i	0	-10	-1	-5
N/C(=N\OC(=O)Cc1cccc2ccccc12)c1ccccn1	-170	10	4	i	-1	-14	8	6
COc1ccccc1NC(=O)Cn1c(=O)n(CCc2c[nH]c3ccccc23)c(=O)c2cccnc21	-12	-4	3	i	2	-9	-4	-2
Cc1ccccc1C1=N/C(=C/c2cccnc2)C(=O)O1	-21	x	-9	i	1	x	0	5
O=C(/C=C/c1ccco1)NC1CCCC1	-18	-18	5	i	26	x	1	6
COc1ccccc1/C=N/NC(=O)c1ccccc1NS(=O)(=O)c1ccc(C)cc1	4	0	6	i	4	x	2	5
CCOC(=O)c1nc(C)n(-c2ccc(Cl)cc2Cl)n1	x	-10	8	i	-3	-15	-2	0
CCOC(=O)C(NC(=O)Nc1ncccn1)(Oc1ccccc1)C(F)(F)F (centres undefined)	x	-1	3	i	3	-8	2	8
CC(C)N(C(=O)CSc1n[nH]c(=O)n1CCc1ccccc1)C(C)C	5	-23	6	i	-7	-14	2	2
O=C(COc1ccc(F)cc1)Nc1nccs1	-71	5	-1	i	-6	-26	2	7
COc1ccc(NC(=O)c2ccc([N+](=O)[O-])cc2[N+](=O)[O-])c(OC)c1	25	-9	10	i	-4	x	2	1
CC(=O)N1CC(C)Sc2ccc(S(=O)(=O)NCCc3ccc(C)cc3)cc21 (centres undefined)	2	-8	-4	i	61	-5	3	-19	eIF4H FP inh retest=8;PABP FP inh retest=11
O=C(Nc1ccccc1N1CCOCC1)c1ccc2c(c1)C(=O)N(Cc1ccncc1)C2=O	8	-19	12	i	4	x	3	5
N#CCCN(C(=O)CSc1nc2nc(-c3cccs3)cc(C(F)(F)F)c2c(=O)[nH]1)c1ccccc1	9	2	-1	i	-6	0	7	-2
Carrying on.
SMILES	Env fusion inh	CSC inhib	PABP FP inh	Rce1 inh	eIF4H FP inh	UUG fidelity	MT1-MMP act inh	MT1-MMP act inh RFP	others
CCN(CC)C(=S)SCC(=O)Nc1cccc(C(F)(F)F)c1	13	-1	x	i	x	5	-1	-14
Cc1cc(NC(=O)c2ccc(C#N)cc2)n(-c2ccccc2)n1	-5	-3	x	x	x	-38	-4	0
CC1(Cc2c(Cl)cccc2Cl)C(=O)Nc2cc(-c3ccccc3Cl)ccc21 (centres undefined)	5	x	x	x	x	-8	-6	-5
Nn1c(COc2ccc(Cl)cc2)n[nH]c1=S	9	-3	-12	i	-2	-17	1	4
COc1ccc(NS(=O)(=O)c2ccc(C)c(C(=O)N(C)Cc3ccc(C)cc3)c2)cc1	5	11	x	i	x	-13	4	-5
O=[N+]([O-])c1cccc(COc2ccccc2CN2CCOCC2)c1	56*	x	x	x	x	-9	3	-2
CN(C)CC1CCCCC1OC(=O)c1ccc(Cl)cc1Cl (centres undefined)	5	-1	3	i	2	x	3	2
COc1ccc(O)c(C(=O)c2cnn(-c3ccccn3)c2)c1	-12	12	-4	i	5	-8	0	-3
Cc1ccc(C)c(NC(=O)CCC(=O)N/N=C/c2ccc[nH]2)c1	6	x	2	i	19	-7	-24	-17
CCOC(=O)C1=C(C)N(C)C(=O)NC1c1c(OC)ccc2ccccc12 (centres undefined)	-1	3	-4	i	-13	-7	5	-3
CCOC(=O)/C(C#N)=C1/C=CN(c2ccccc2)C=N1	x	-6	4	i	-1	5	-1	2
CCc1n[nH]c2c1/C(=N\O)CC(C)(C)C2	x	-3	-7	i	-6	35	4	1
CCCCCn1c(=O)c(C(=O)OCC)c(Cl)c2ccccc21	26	-7	5	i	-3	-6	-2	-6
CC(C)CSc1nc2ccccc2n1CC(=O)O	-4	-7	1	i	-12	0	-4	-4
COc1ccc(C(C)=O)cc1COC(=O)c1cc2ccccc2cc1O	-89	4	-5	i	-5	-6	0	-9
NS(=O)(=O)c1ccc(CCNc2ccn3nc(-c4ccccc4)cc3n2)cc1	3	x	x	x	x	-9	0	-1
C[C@H](NC(=O)Nc1ccccc1F)C(=O)O	x	-7	6	i	11	-19	2	6
NC(=O)c1ccccc1NC(=O)C(c1ccccc1)c1ccccc1	18	10	x	i	x	x	-3	-2
Cc1ccccc1N1CCN(C(=O)c2ccccc2NC(=O)/C=C\C(=O)O)CC1	x	-9	10	i	-1	-20	5	5
Cc1sc2nc(CSCC(=O)Nc3ccc(C(=O)N(C)C)cc3)[nH]c(=O)c2c1C	x	-11	x	x	x	-9	-19	-3
Cc1cc(C)cc(NC(=O)C2CCCN(c3nccc(C)n3)C2)c1 (centres undefined)	x	12	2	i	4	-26	3	-6
O=C(Nc1ccc(Cl)c(Cl)c1)N1CC=CCC1	x	1	-2	i	-3	-15	-2	-11
Nc1ccccc1SC/C=C/CSc1ccccc1N	7	55	4	i	2	-20	-8	-11
CC(C)Sc1nc(N2CCCC2)c2c(c1C#N)CC(C)(C)OC2	x	12	-1	i	-8	-13	-5	-5
CCNC(=S)N(Cc1ccccc1)Cc1nc2ccccc2c(=O)[nH]1	x	-2	27	i	3	-31	-1	3
The results go on:
SMILES	Env fusion inh	CSC inhib	PABP FP inh	Rce1 inh	eIF4H FP inh	UUG fidelity	MT1-MMP act inh	MT1-MMP act inh RFP	others
COc1ccccc1C(CNC(=O)CNC(=O)c1ccccc1Cl)N1CCCC1 (centres undefined)	x	-9	x	x	x	3	-1	4
c1ccc(CN2CCN(c3nc(-c4ccccc4)nc4ccccc34)CC2)cc1	x	70	-10	i	4	13	-24	-8
N#CC1=C(N)Oc2c(oc(CO)cc2=O)C12C(=O)Nc1ccc(Cl)cc12 (centres undefined)	12	-17	-2	i	6	-15	-8	2
CC(C)(C)c1nc(NCCO)c2nnn(Cc3ccccc3)c2n1	-69	-2	-3	i	-6	1	-5	-4
O=C(NCCc1ccccc1)C(=O)NCC1OCCCN1S(=O)(=O)c1cc(F)ccc1F (centres undefined)	3	2	2	i	-7	-30	0	0
O=C(NCc1ccccc1)c1onc(CSc2ccc(Cl)cc2)c1C(=O)NCC1CC1	-28	13	x	i	x	-8	1	4
Cc1ccc(C2=CC(C)(c3ccc(C)cc3)Nc3nc(C(F)(F)F)nn32)cc1 (centres undefined)	-7	30	-6	i	2	-16	-35	-26
COc1ccc(NC(=O)CSc2[nH]c(=O)cc(C)c2C#N)cc1OC	x	-1	8	i	-4	-17	9	6
CCOC(=O)C1=C(CSc2nc(-c3ccncc3)ccc2C#N)OC(N)=C(C#N)C1c1ccc(OC)cc1 (centres undefined)	x	6	122	i	122	x	-20	6	eIF4H FP inh retest=47;PABP FP inh retest=18
Cc1cccc(Oc2ncnc(N)c2[N+](=O)[O-])c1C	-1	-5	-11	i	-2	-10	-1	1
S=C(NN=C1CCN(Cc2ccccc2)CC1)NC1CCCCC1	3	-8	-3	i	8	-41	2	1
CCN(N=Nc1cccc([N+](=O)[O-])c1)c1cccc([N+](=O)[O-])c1	x	-10	-10	i	-11	-2	-3	-2
O=C(O)CCN=Cc1c(O)c2ccccc2oc1=O	11	3	9	i	4	x	-2	-3
Cc1cc(C)cc(NC(=O)NNC(=O)c2cc3occc3[nH]2)c1	5	16	9	i	0	-23	-1	2
Cc1c(C2(O)CCCCC2)[nH]c2cc(C(F)(F)F)ccc12	x	u	x	x	x	-11	0	-7
COc1ccc(C)cc1S(=O)(=O)N1CCN(S(=O)(=O)c2cc(C)ccc2OC)C(C)C1 (centres undefined)	12	0	-1	i	-10	15	-8	-6
CCCc1cc(-n2cnc3ccccc32)n2c(nc3ccccc32)c1C#N	-23	1	18	i	8	-13	-32	-3
S=C1SCN(CCN2CCOCC2)CN1Cc1ccccc1	-64	19	-16	i	-2	-19	4	0
Cc1nc(SCC#N)c2c3c(sc2n1)CCC3	x	2	6	i	-1	-3	-5	-6
O=c1c2ccccc2ncn1Cc1ccccc1	10	-6	4	i	-3	-12	-4	-2
Cc1cccc(NC(=S)NCCc2ccccc2)n1	-12	34	u	i	u	x	-4	-7
O=C(NCCCNc1ccc([N+](=O)[O-])cc1Cl)c1ccccc1F	-6	5	-1	i	0	x	0	0
CCOC(=O)c1cnc2nc(SCc3ccccc3Cl)[nH]n2c1=O	1	-6	x	i	x	-4	-1	5
CCNC(=S)SCCOc1ccc(C)cc1	-3	1	0	i	-6	x	2	4
Cc1onc(-c2ccccc2Cl)c1C(=O)NCc1ccccn1	3	-9	-16	i	-4	-11	2	9
More entries follow.
SMILES	Env fusion inh	CSC inhib	PABP FP inh	Rce1 inh	eIF4H FP inh	UUG fidelity	MT1-MMP act inh	MT1-MMP act inh RFP	others
N=C1SCC(=O)N1c1ncc(Cc2cccc(Cl)c2)s1	6	x	-3	i	0	-6	3	4
Cc1nc(-c2cccc(NS(=O)(=O)c3ccccc3)c2)cs1	x	-13	3	i	-9	-3	3	-5
CC(C)c1ccc(C2NC(C(=O)O)CS2)cc1 (centres undefined)	-18	-7	0	i	4	-11	1	5
CCCN(CC1CC1)C(=O)COc1ccccc1C(=O)NCc1ccccc1	-92	44	12	i	-9	9	3	1
CCOC(=O)C1CCN(C(=O)c2cc(COc3ccc(F)cc3F)on2)CC1	-33	-12	-9	x	-4	-3	1	3
CCOc1ccc(-n2ccc(=O)c(C(=O)Nc3ccc(S(=O)(=O)Nc4nccs4)cc3)n2)cc1	0	-2	10	i	34	-12	0	-2
Cn1nccc1NS(=O)(=O)c1ccc(NC(=O)C(F)(F)F)cc1	-3	-13	-4	i	-1	-13	-1	1
CCOC(=O)c1ccc(N2CCN(C(=O)c3ccccc3)CC2)c(NC(=O)c2ccco2)c1	2	-17	7	i	2	-5	0	-2
Cc1ccc2oc(C(=O)NCCCN3CCOCC3)c(C)c2c1	-39	-7	-6	i	11	-2	1	0
COc1ccc(OC)c(NC(=O)COC(=O)c2c(C)noc2C)c1	8	x	x	x	x	-18	2	1

A portion of the library (hit frequency here may not be typical).
